# Calb biofilm kill – mixture kills Candida albicans biofilm cells. C. albicans biofilm persisters + clotrimazole, fluorescence viability; primary screen in compound mixtures of four per well. inhibition, % at 7.6 µM. 120,000 tested, 0.02% active. AID 1242;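 active means inhibition above 30.3% in the primary screen of four-compound pools, then above 30% when the compound was retested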;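 further: compounds exposed to preformed 24 h biofilms for 48 h; the number belongs to the whole pool; some results filed as inactive read as strong as hits; inactives centre near 12; 0% = biofilm with clotrimazole alone and 100% = kill control; retested singly at about 60 µM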
#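 Test system: C. albicans CAF4-2 wild-type biofilms; buffer or medium: RPMI/MOPS medium, pH 7.0; schedule: 24 h biofilm formation, then 48 h compound exposure, 37 °C; detection: Alamar Blue fluorescence; measure: percent inhibition of biofilm viability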
# An asterisk follows results filed as active.
smiles,Calb biofilm kill
CCOc1ccc(NC(=O)c2ccc(NC(=S)NC3CCCCC3)cc2)cc1,21
CCn1cc(C(=O)OCC(=O)Nc2cccc(Cl)c2Cl)c(=O)c2ccc(C)nc21,10
COc1cccc(/C=N/NC(N)=S)c1OCc1cccc(Cl)c1,9
COC(=O)c1cccc(NC(=O)CC2C(=O)NCCN2C(=O)c2ccc(F)cc2F)c1 (configuration not stated),27
O=C(NCCCc1ccccc1)N1CCOCC1,17
Cc1cnc(C)c(N2CCN(Cc3nc(-c4ccccc4)no3)CC2)n1,18
O=C(NCCc1ccccn1)C(F)(F)C(F)(F)C(F)(F)C(F)(F)C(F)(F)C(F)(F)C(F)(F)C(F)F,15
CS(=O)(=O)N1Cc2ccccc2CC1C(=O)O (configuration not stated),22
Cc1cccc(NC(=S)NC2CC3CCCC(C2)N3Cc2ccccc2)c1C (configuration not stated),24
O=C(CN1N=C(c2ccc(Cl)cc2)CCC1=O)NCCN1CCc2ccccc2C1,21
Cn1c(SCC(=O)N/N=C/c2ccc([N+](=O)[O-])s2)nnc1-c1ccccc1,21
Cc1cccc(-n2ccnc2CN2CCC(CO)(Cc3ccccc3)CC2)c1,24
CCn1c(O)c(/C=C2\C=NN=C2c2ccccc2)sc1=S,16
C[C@@H](C(=O)NCc1ccccc1)[C@@H]1C[C@@]1(C)[C@@H](NC(=O)OCc1ccccc1)c1ccccc1,0
COc1ccc(/C=C2\CCC/C(=C\C=N\N(C)C)C2=O)cc1,12
CC(=O)Nc1ccc(C(=O)N(C)C(C(=O)Nc2ccc(C)cc2)c2ccccn2)cc1 (configuration not stated),7
COc1ccc(C(C(=O)Nc2ccc(C(C)C)cc2)N(Cc2ccco2)C(=O)CC2NC(=O)NC2=O)cc1 (configuration not stated),15
Cc1c(Cc2ccccc2)c(=O)oc2cc(O)ccc12,12
COc1ccccc1CC(=O)Nc1ccc([N+](=O)[O-])cc1O,14
CCCC(=O)NCc1ccccc1Cl,16

# 5 compounds drawn at random from those above:
smiles,Calb biofilm kill
Cc1cccc(-n2ccnc2CN2CCC(CO)(Cc3ccccc3)CC2)c1,24
Cc1cccc(NC(=S)NC2CC3CCCC(C2)N3Cc2ccccc2)c1C (configuration not stated),24
Cn1c(SCC(=O)N/N=C/c2ccc([N+](=O)[O-])s2)nnc1-c1ccccc1,21
Cc1cnc(C)c(N2CCN(Cc3nc(-c4ccccc4)no3)CC2)n1,18
COc1ccc(C(C(=O)Nc2ccc(C(C)C)cc2)N(Cc2ccco2)C(=O)CC2NC(=O)NC2=O)cc1 (configuration not stated),15

# New compounds follow
smiles,Calb biofilm kill
O=S(=O)(Cc1cc(NCc2ccccc2)nc(-c2ccncc2)n1)c1ccccc1,11
CC1CCCCN1C(=O)CSc1nnc(Cc2ccccc2)n1C (configuration not stated),12
CN1C(=O)C(CC(=O)NC2CCCCC2)N(C)C1=O (configuration not stated),14
COC(=O)c1sc2nc(C)c([N+](=O)[O-])c(C)c2c1N,17
CC(C)(C)C(=O)Nc1nnc(-c2ccncc2)o1,5
CC1(C)C2CC=C(/C=N/NC(=O)C3CC3)C1C2 (configuration not stated),15
CCCCCCC1CC(/C(C)=N\NC(N)=O)OC1=O (configuration not stated),9
Cc1ccc(S(=O)(=O)n2nccc2-c2c(-c3ccccc3)noc2C)cc1,9
Cc1ccc(NP(=O)(c2ccc(N(C)C)cc2NC(=O)c2cccs2)N2CCOCC2)cc1 (configuration not stated),23
CC(=O)CC(C)(C)NC(C)=S,3
O=C1c2cccc3cc(Br)cc(c23)C(=O)N1Nc1ccc(Br)cc1,10
COc1cccc(C(=O)NN2CC(O)=C(c3nc(C)cs3)C2=N)c1,20
COc1ccc(/C=C(\C#N)C(=O)NCCCn2ccnc2)cc1,15
O=C(/C=C/c1cccc(F)c1)c1ccc(N2CCOCC2)cc1,17
Cc1ccc(S(=O)(=O)NCC(=O)OCC(=O)NCc2ccc(F)cc2)cc1,11
CO/N=C1\CCn2c1c(C)c1ccccc12,10
Cc1cc(C)n2c(SCC(C)C)nnc2n1,12
O=C(Nc1ncc(Cc2cccc(Cl)c2Cl)s1)C1CCCO1 (configuration not stated),23
N/C(=N\OC(=O)c1cccc([N+](=O)[O-])c1)c1cccnc1,3
CCCCNC(=O)CSc1nc(CCC)nc2ccccc12,13

# Carrying on.
smiles,Calb biofilm kill
O=C(CSc1nc2ccc(NC(=O)CSc3nnnn3Cc3ccccc3)cc2s1)Nc1ccccc1,1
N#Cc1cc(-c2ccccc2)nc(N2CCNCC2)n1,19
COC(=O)c1c(NS(=O)(=O)c2ccc(C)cc2)sc2c1CCC(C)C2 (configuration not stated),4
Cc1cc(C)cc(NC(=O)N2CCCCCCC2)c1,17
CCCCOc1ccc(/C=C/C(=O)OCC(=O)N2CC(=O)Nc3ccccc32)cc1OCC,13
CCCc1cc(NCc2ccccn2)n2nc(C)c(-c3ccccc3)c2n1,17
CC(=O)c1ccc(NC(=S)NCC(c2ccco2)N2CCCC2)cc1 (configuration not stated),16
COc1cccc(/C=N/NC(=O)c2ccccc2)c1OS(=O)(=O)c1ccccc1,13
O=C(Cc1ccccc1)N1CCNCC1,-8
Cc1ccc(O)c(/C=N/NC(=O)c2[nH]ncc2Br)c1,22
Cc1c(C(N)=O)sc2ncn(CC(=O)NCCc3ccccc3)c(=O)c12,18
CCOC(=O)Cc1csc(NC(=O)CCSc2ccccc2)n1,-1
COC(=O)c1cc(=O)n(Cc2cccs2)c(=Nc2ccc(F)cc2)s1,12
COc1ccc(NC(=O)N2CCN(S(C)(=O)=O)CC2)cc1,8
Cc1ccnc(NC(=O)c2ccco2)n1,12
COc1ccc(CC(=O)NCC(=O)N/N=C/c2cc(Br)ccc2OC)cc1,19
C/C(=N\NC(=O)c1ccc(CSc2nncn2C)cc1)c1ccc(C#N)cc1,26
Cc1ccsc1CNC1C2CC3CC(C2)CC1C3 (configuration not stated),20
O=C(CCCN1C(=O)/C(=C/c2ccccc2Cl)SC1=S)NNC(=O)c1ccncc1,27
Cc1cc(Br)ccc1-n1[nH]c(C)c(C=Nc2cccc3nsnc23)c1=O,16

# The listing continues:
smiles,Calb biofilm kill
O=C(CCCO)N/N=C/c1ccccc1[N+](=O)[O-],9
COc1ccc(CNC(=O)c2cnn3c(C(F)F)cc(C)nc23)cc1,15
CC(C)C[C@H](NC(=O)c1[nH]cnc1C(=O)Nc1ccc(CNC(=O)OC(C)(C)C)cc1)C(=O)OCc1ccccc1,8
Cc1ccc(/C(N)=N/OC(=O)c2ccc3c(c2)OCO3)cc1,6
CCCCn1c(CCC(=O)O)nc2cc(S(=O)(=O)N(C)C)ccc21,2
CCOc1ccccc1NC(=O)CN1C(=O)CSC(C)C1=O (configuration not stated),2
N/C(=N\OC(=O)COc1ccc(Cl)cc1Cl)c1ccncc1,9
Cc1cc(C)nc(Sc2ncnc(N)c2[N+](=O)[O-])n1,2
CCCCC1C2C(=O)N(c3ccc(C)cc3)C(=O)C2ON1c1ccccc1 (configuration not stated),5
COC(=O)c1ccc(-c2noc(CN(C)CC3CCCCO3)n2)cc1 (configuration not stated),28
Cc1cc(C)c(S(=O)(=O)NCCc2ccccc2)c(C)c1,28
O=C(CN1CCN(c2ncccn2)CC1)Nc1ccccc1C(F)(F)F,7
COc1cccc2c(=O)cc(C)n(CC(=O)Nc3cccc(C)c3)c12,6
c1ccc(Oc2c3ccccc3nc3ccccc23)cc1,14
OCC1(CCCc2ccccc2)CCN(Cc2cnc(N3CCOCC3)s2)CC1,8
O=C(NNC(=O)c1cccs1)c1ccc(Cl)cc1,19
Fc1ccccc1-c1n[nH]c(=S)n1/N=C/c1c[nH]c2ccccc12,12
COc1ccc(-c2c(C)[nH]n3c(=O)c(Cc4ccccc4)c(C)nc23)cc1OC,9
S=C1NC[C@H](CC2CCCCC2)N1CCCCC1CCCCC1,9
Cc1cc(C)n(CC(=O)O)c(=O)c1[N+](=O)[O-],-2

# Carrying on:
smiles,Calb biofilm kill
Cc1cccc2c(C(=O)n3cccn3)cc(-c3ccccc3Cl)nc12,29
CC(C)(C)Nc1nc(N)nc(Cl)n1,23
O=C(Cc1ccccc1)N1N=C(c2ccncc2)CC1(O)C(F)(F)F (configuration not stated),17
CCOC(=O)CNC(=O)CSc1nnc(-c2ccccc2)c(-c2ccccc2)n1,3
O=C(CCN1C(=O)c2ccccc2S1(=O)=O)Nc1cccc2ccccc12,18
Nn1c(SCc2ccc(F)cc2)nnc1-c1ccccn1,25
CCOc1ccc(OCCn2c(=S)[nH]c3c(N)ncnc32)cc1,8
COc1ccc(NC(=O)CC2C(=O)N(c3ccc(Cl)cc3)C(=S)N2NC(=O)c2cccc(F)c2)cc1 (configuration not stated),13
FC(F)(F)c1ccc(NC(=S)NC2CCCCC2)cc1,9
COCCCn1c(=S)[nH]c2sc3c(c2c1=O)CCCS3,20
CC(C)NC(=S)N/N=C1\CCCc2ccccc21,9
Cc1ccccc1NC(=O)c1cc(C(=O)c2cc(Cl)ccc2O)cn(-c2ccccc2C)c1=O,15
O=C(Cc1ccccc1F)Nc1ccc(Cl)nc1,6
COc1ccc(-c2cc(C(F)(F)F)n3nc(C(=O)NCCN4CCOCC4)cc3n2)cc1,22
CCN(CC(=O)NCCc1ccccc1)S(=O)(=O)c1ccc(C)cc1,9
COc1cc(NS(=O)(=O)c2cc(C(=O)N3CCN(C(C)=O)CC3)ccc2OC)cc(OC)c1,8
CC(C)(C)NC(=S)NC(=O)C12CC3CCC(CC(C3)C1)C2,13
O=C(CC(Sc1n[nH]c(-c2ccccc2)n1)c1ccccc1)NCc1ccccc1 (configuration not stated),13
CC(C)(C)NCC(O)COc1ccc(Br)cc1 (configuration not stated),-3
O=C(COCc1ccccc1)N[C@@H](Cc1ccc(O)cc1)C(=O)O,20

# Of the compounds above, these have bromine:
smiles,Calb biofilm kill
O=C1c2cccc3cc(Br)cc(c23)C(=O)N1Nc1ccc(Br)cc1,10
Cc1ccc(O)c(/C=N/NC(=O)c2[nH]ncc2Br)c1,22
COc1ccc(CC(=O)NCC(=O)N/N=C/c2cc(Br)ccc2OC)cc1,19
Cc1cc(Br)ccc1-n1[nH]c(C)c(C=Nc2cccc3nsnc23)c1=O,16
CC(C)(C)NCC(O)COc1ccc(Br)cc1 (configuration not stated),-3

# (cont.)
smiles,Calb biofilm kill
CC(=O)N1CCC(N(CCN2CCOCC2)C(=S)Nc2cc(C)ccc2C)CC1,19
NC(=O)N/N=C/c1c(F)cccc1F,11
CC1CCCCC1NC(=O)/C(C#N)=C/C=C/c1ccccc1[N+](=O)[O-] (configuration not stated),16
CCCCNc1n[n+](C)c(-c2cccc(C)c2)s1,13
CC(=O)/C=C1\N(C)c2ccc(C)cc2C1(C)C,7
CCOC(CNc1ncnc2c1cnn2C)OCC,8
Cc1cn(-c2cc(C(=O)Nc3ccc(C)c(NC(=O)N4CCNC4=O)c3)cc(C(F)(F)F)c2)cn1,14
CCOC(=O)c1sc(NC(=O)CSC(=S)N2CCOCC2)nc1C,0
CCOc1ccc(C(=O)NCC(c2cccs2)N(C)C)cc1 (configuration not stated),14
O=C(NNC1=Nc2cccc3cccc1c23)c1ccccc1Br,28
CC(=O)c1c(C)[nH]c(=S)c(C#N)c1-c1ccc(F)cc1,22
COc1ccc(NC(=O)CCC(=O)N/N=C/c2ccc([N+](=O)[O-])s2)cc1,20
CC(=O)N1CCC2(CC1)NC(=O)N(c1ccccc1)N2,25
CCOc1cc(C(=O)CCC(=O)OCC(=O)NC(=O)NCC(C)C)ccc1O,14
O=[N+]([O-])c1cc(/C=N/Nc2nc(N3CCOCC3)nc(N3CCOCC3)n2)ccc1Cl,12
Cc1ccc(S(=O)(=O)N2CCCCC2)cc1NC(=O)c1ccc2c(=O)n3c(nc2c1)CCCCC3,16
S=c1nc[nH]c2c1sc1nc(N3CCOCC3)c3c(c12)CCCC3,21
Cc1ccc(/C=N\NC(=O)c2cncc(Br)c2)o1,19
CCCS(=O)(=O)N1CCN(C2Cc3ccccc3C2)CC1,5
Fc1cccc(NC(=S)NCC(c2cccnc2)N2CCOCC2)c1 (configuration not stated),6

# Next part
smiles,Calb biofilm kill
CCN1CC(CNCc2cn(-c3ccc(OC)cc3)nc2-c2ccccc2Cl)CC1=O (configuration not stated),15
CC(=O)c1ccc(N2CCN(C(=O)c3ccc4ccccc4n3)CC2)cc1,6
Cc1cccc(-n2c3nc(=O)[nH]c(=O)c-3cc3c(C)nn(-c4ccccc4)c32)c1C,12
c1ccc(Nc2nc(-c3ccncc3)cs2)cc1,11
CC(=O)NC(C)c1nc2ccccc2n1CC(=O)NC(C)CCc1ccccc1 (configuration not stated),7
CN(C)CCC(O)c1ccccc1 (configuration not stated),14
CN1/C(=C\C(=O)c2cccc(S(=O)(=O)N3CCCCC3)c2)C(C)(C)c2ccccc21,7
Cc1cc(C)nc(NC(=S)Nc2ccc(F)cc2F)c1,15
CC1(C)CC(=O)C/C(=N\NC(=O)C2CC23CCC3)C1 (configuration not stated),9
O=S(=O)(Nc1ccc(Cl)cc1)c1ccc(N2CCOCC2)c(NC(=S)NCCN2CCOCC2)c1,8
N=c1c2c(n(Cc3ccc(Br)cc3)c3c1CCC3)CCCC2,14
O=C1SCCC1NC(=O)C(c1ccccc1)c1ccccc1 (configuration not stated),20
CN(C)S(=O)(=O)c1cccc(NC(=S)N/N=C/C2CC=CCC2)c1 (configuration not stated),17
O=c1[nH]c(CN2CCN(S(=O)(=O)c3ccccc3C(F)(F)F)CC2)nc2sc3c(c12)CCCC3,9
COc1ccc(S(=O)(=O)N2CCN(c3ccccn3)CC2)cc1[N+](=O)[O-],5

# From PubChem BioAssay

# Only part of the results is shown (hit frequency here may not be typical).
